Cruzain inh Det = blocks cruzain activity in presence of Triton detergent. P25779. purified cruzain, Z-FR-AMC fluorescence, 0.01% Triton. Potency, µM, inactives show max response, negative = inhibition, hits mostly inhibitors. actives 0.43% (n = 200,000). AID 1478;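 also: plate controls were neutral wells for no effect and buffer without enzyme for full effect; nearly all actives have a fitted effect of over 40% in size; top concentration of the series not given in the record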
Target sequence (P25779 123-467 limits assumed): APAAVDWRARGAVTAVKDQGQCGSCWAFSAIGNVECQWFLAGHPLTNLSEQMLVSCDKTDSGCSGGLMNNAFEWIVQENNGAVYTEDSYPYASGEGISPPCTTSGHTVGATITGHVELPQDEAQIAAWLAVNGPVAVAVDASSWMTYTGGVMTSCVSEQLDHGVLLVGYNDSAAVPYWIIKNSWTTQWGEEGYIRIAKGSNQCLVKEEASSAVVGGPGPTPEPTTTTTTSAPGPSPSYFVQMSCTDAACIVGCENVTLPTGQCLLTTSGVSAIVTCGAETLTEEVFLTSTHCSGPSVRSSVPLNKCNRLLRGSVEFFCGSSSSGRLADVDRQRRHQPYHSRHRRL
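Cysteine protease activity tested under reducing, mildly acidic conditions (100 mM sodium acetate pH 5.5, 5 mM DTT) plus 0.01% Triton X-100. Cruzain 1.5 nM; substrate Z-FR-AMC 2 uM; 15 min compound preincubation at room temperature.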
2A StopGo = lowers the luciferase signal of an FMDV 2A StopGo reporter; human cells with a luciferase reporter of 2A StopGo recoding; control for the full effect not named in the record; Potency, µM (doses to about 57.9 µM), inactives show at the highest dose signal change, negative = less light; actives 1.2% (n = 410,000); active = well fitted falling curve with a large enough effect; inconclusive = small, poorly fitted or top-dose-only effect; inactive = no such curve, though single readings can be large or run the other way; tested in HEK293T cells; also: % is scaled to controls: 0 for no effect and ±100 for the full control effect; nearly all actives have a fitted effect of over 45% in size; luciferase light after 4 h
Cruzain inh noDet = inhibitors of Trypanosoma cruzi cruzain without detergent; actives 2.3% (n = 200,000); purified cruzain, Z-FR-AMC fluorescence, no detergent; P25779; Potency, µM, inactives show max response, negative = inhibition, usual class: inhibitors;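 also: plate controls were enzyme without inhibitor for no effect and buffer without enzyme for full effect; nearly all actives have a fitted effect of over 40% in size; top concentration of the series not given in the record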
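Purified cruzain at 1.5 nM, pre-incubated 15 min with compound at room temperature in 100 mM sodium acetate pH 5.5, 5 mM DTT, 0.00005% Triton X-100. Reaction started with 2 uM Z-FR-AMC; AMC fluorescence increase over 60 s gives rate.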
SARS PLpro yeast = inhibitors of SARS-CoV papain-like protease in yeast | actives 0.19% (n = 330,000) | S. cerevisiae expressing SARS-CoV PLpro, growth rescue; control for the full effect not named in the record | Potency, µM (series often up to 32.9 µM), inactives show at the highest dose activity, positive = growth rescue; active means well fitted rising curve with a large enough effect; inconclusive means small, poorly fitted or top-dose-only effect; inactive means no such curve, though single readings can be large or run the other way; also: 0% is about no effect; nearly all actives have a fitted effect of over 55% in size; growth read by luminescence after 48 h
RE007 growth inh = less growth of the S. pombe RE007 Vpr strain. S. pombe RE007 Vpr strain, BacTiter-Glo ATP luminescence, 24 h; control for the full effect not named in the record. Potency, µM (top dose mostly 92.2 µM), without a hit: at the highest dose activity change, negative = less growth. AID 651644. actives 0.21% (n = 360,000); active = well fitted falling curve with a large enough effect; inconclusive = small, poorly fitted or top-dose-only effect; inactive = no such curve, though single readings can be large or run the other way;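 also: % is scaled to controls: 0 for no effect and ±100 for the full control effect; nearly all actives have a fitted effect of over 50% in size; the assay follows cell death caused by Vpr and the record does not say whether a fall means rescue or toxicity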
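Fission yeast RE007 carrying one integrated HIV-1 vpr copy, seeded at OD 0.01 in PMG+AL medium with 23 nL pinned compound. Grown 24 h at 30 degrees; viability read by BacTiter-Glo luminescence after 5 min.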
Marburg entry inh = blocks Marburg virus binding to or entry into cells. Marburg virus pseudotyped entry inhibition, cell reporter; control for the full effect not named in the record; about a third of the inactives were read at about 46 µM. Potency, µM (series often up to 37.8 µM), for inactives: at the top dose activity change, negative = inhibition, most hits filed as inhibitors. actives 1.8% (n = 300,000). AID 540276; active = well fitted inhibition curve with a large enough effect; inconclusive = small, poorly fitted or top-dose-only effect, or effect the other way; inactive = flat fitted curve, though single readings scatter; tested in HEK293 cells; about a fifth of its hits are not listed in these tables; also: % is scaled to controls: 0 for no effect and ±100 for the full control effect; luciferase read-out
NS1 inh = inhibitors of influenza NS1 protein function. S. cerevisiae slowed by influenza A NS1, growth recovery by OD600. Potency, µM (doses to about 46.1 µM), for inactives: at the top dose activity, positive = more growth. actives 0.4% (n = 270,000). AID 2326; active means well fitted rising curve with a large enough effect; inconclusive means small, poorly fitted or top-dose-only effect; inactive means no such curve, though single readings can be large or run the other way; also: nearly all actives have a fitted effect of over 50% in size
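OD600 was taken as the measure of yeast growth restored by compound in an NS1-expressing S. cerevisiae strain. Cells had been washed out of glucose medium and diluted 1:100 into galactose -URA medium, pH 6.0.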
LASV entry inh = Lassa virus entry inhibition; Lassa virus pseudotype entry inhibition, cell reporter; control for the full effect not named in the record; Potency, µM (series often up to 37.9 µM), without a hit: top-dose activity change, negative = inhibition, most hits filed as inhibitors; actives 1.2% (n = 300,000); AID 540256; active means well fitted inhibition curve with a large enough effect; inconclusive means small, poorly fitted or top-dose-only effect, or effect the other way; inactive means flat fitted curve, though single readings scatter; tested in HEK293 cells; also: % is scaled to controls: 0 for no effect and ±100 for the full control effect; nearly all actives have a fitted effect of over 50% in size; luciferase read-out
Starred values were filed as active, the others as inactive; ? = inconclusive; . = not tested or not shown; & = joins results of further samples; [ ] = remark or other dose. Unless noted, calls follow the shape of the dose curve; as a rule, active = well fitted curve in the direction sought with a large enough effect; inconclusive = small, poorly fitted or top-dose-only effect, or another doubt; inactive = no such curve, though single readings can be large; an effect the other way counts as inactive or inconclusive. Potency is read from the fitted curve at half-maximal effect.

| Structure | Cruzain inh Det | 2A StopGo | Cruzain inh noDet | SARS PLpro yeast | RE007 growth inh | Marburg entry inh | NS1 inh | LASV entry inh |
| --- | --- | --- | --- | --- | --- | --- | --- | --- |
| CCCC/C(C)=N/NC(=O)Nc1ccccc1 | 1.4% | 42%[activator] | -3% | 3% | -10% | 9% | 10% | 10% |
| CCc1cccc(C)c1NC(=O)c1cc(S(=O)(=O)NCc2ccccc2Cl)ccc1F | -0.7% | -8% | -14% | . | . | . | . | -2%[46.1 µM] |
| Cc1ccc(C(NC(=O)N2CCCCC2)=C(Cl)Cl)cc1F | -1.7% | ? | -2% | 3% | -7% | -10% | 6% | 2% |
| Cc1cc(OCC(=O)N(C(C)C)C(C)C)cc(C)c1Br | -5.0% | ? | -5% | 23% | 0% | -27% | -16% | 1% |
| CCC12C(=O)C(CC)(C(c3ccccc3)=C1c1ccccc1)[C@@H]1C(=O)N(c3ccccc3)C(=O)C12 (stereo partly drawn) | -3.6% | -25% | -16% | -21% | -1% | ? | 24% | -2% |
| COc1ccc(NC(=O)CSCC(=O)N(C)Cc2ccc3c(c2)OCCO3)cc1 | . | -5% | . | 0% | -1% | -9% | . | 0% |
| COc1ccccc1/C=C/C=C1\Oc2c(ccc(O)c2CN2CCN(CCO)CC2)C1=O | -2.2% | 0% | 12% | -17% | -1% | 7% | 28% | 16% |
| Cc1cccc(C(=O)OCC(=O)N2CC(=O)Nc3ccccc32)c1C | . | -26% | . | 1% | 3% | -23% | . | ? |
| Nc1c(C(=O)Nc2ccc3c(c2)OCCO3)nnn1Cc1ccccc1Cl | . | 41%[activator] | . | -8% | 7% | ? | . | -39%[46.1 µM] |
| COc1ccc(C(=O)N2CCc3cc(OC)c(OC)cc3C2c2cccc([N+](=O)[O-])c2)cc1 (stereo not drawn) | 3.7% | . | ? | -1% | . | 1% | -4% | . |
| O=C(CNc1cccc2ccccc12)N/N=C/c1ccccn1 | . | -21% | . | -1% | -5% | ? | -6% | -20% |
| C/C(=N\NP(=S)(c1ccccc1)c1ccccc1)c1ccc(O)cc1O | . | 19% | . | -2% | 26% | -13%[46.1 µM] | 5% | ? |
| COc1ccc(CNC(=O)Nc2ccccc2)cc1 | . | 10% | . | -1% | 5% | . | -8% | . |
| CC1=C2C3OC(=O)C(C)[C@@H]3CC[C@](C)(O)C2C2C3C4C5(C12)[C@H]1OC(=O)[C@@H](C)C1CC[C@]4(C)O[C@]5(C)[C@@H]3O (stereo partly drawn) | 0.1% | -1% | -9% | 3% | -2% | -3% | -20% | 0% |
| COc1ccccc1CCNC(=O)C(C)n1nc(C)c2c(C)n(-c3ccccc3)nc2c1=O (stereo not drawn) | . | -27% | . | 5% | 1% | . | 10% | . |
| CC(CC(=O)N1CCN(c2ccccc2F)CC1)c1ccccc1 (stereo not drawn) | -3.1% | -20% | 0% | 20% | 2% | 2% | -10% | 16% |
| CC(C)c1ccc(S(=O)(=O)NCc2nc3cccnc3n2Cc2ccc(F)cc2)cc1 | -3.7% | 27% | -4% | . | . | . | . | 1%[46.1 µM] |
| CN(C)c1ccc(C=Nc2ccccc2)cc1 | -10% | . | -11% | -1% | 13% | 27% | -58% | ? |
| CCN(CC)S(=O)(=O)c1ccc(F)c(C(=O)NCCCN2CCOCC2)c1 | 6.2% | -9% | 8% | 5% | -16% | 0% | -3% | 12% |
| Cc1ccc(C2SCC(=O)N2c2ccccc2)cc1 (stereo not drawn) | . | 25% | . | 1% | 31% | 4% | 11% | 8% |
| CC(=O)Nc1ccc(S(=O)(=O)NCc2ccc(C(=O)NCCN3CCCCCC3)cc2)cc1 | 2.1% | 4% | -3% | 1% | -10% | 4%&11% | -3% | 6% |
| NC(=O)CSc1nnc(-c2ccccc2F)n1C1CC1 | . | 5% | . | 1% | -6% | 15%[46.1 µM] | 0% | -6% |
| CCCc1cc(=O)[nH]c2nnc(SCC(=O)NC3CCCC3)n12 | . | 12% | . | -1% | 7% | 7%[46.1 µM] | . | 10% |
| O=C(CSCc1ccccc1)Nc1ccc(Cl)cn1 | 4.5% | 27% | -7% | 0% | -13% | 7% | -4% | 4% |

Looked up by compound from the list above:
| Structure | Cruzain inh Det | 2A StopGo | Cruzain inh noDet | SARS PLpro yeast | RE007 growth inh | Marburg entry inh | NS1 inh | LASV entry inh |
| --- | --- | --- | --- | --- | --- | --- | --- | --- |
| CCN(CC)S(=O)(=O)c1ccc(F)c(C(=O)NCCCN2CCOCC2)c1 | 6.2% | -9% | 8% | 5% | -16% | 0% | -3% | 12% |
| CC(=O)Nc1ccc(S(=O)(=O)NCc2ccc(C(=O)NCCN3CCCCCC3)cc2)cc1 | 2.1% | 4% | -3% | 1% | -10% | 4%&11% | -3% | 6% |
| CCCc1cc(=O)[nH]c2nnc(SCC(=O)NC3CCCC3)n12 | . | 12% | . | -1% | 7% | 7%[46.1 µM] | . | 10% |

(list continues)
| Structure | Cruzain inh Det | 2A StopGo | Cruzain inh noDet | SARS PLpro yeast | RE007 growth inh | Marburg entry inh | NS1 inh | LASV entry inh |
| --- | --- | --- | --- | --- | --- | --- | --- | --- |
| COc1cc(C)c(Cl)cc1S(=O)(=O)NCc1ccccn1 | . | 53%[activator] | . | 0% | 2% | -11%[46.1 µM] | 4% | 11%[46.1 µM] |
| COc1ccc(OC)c(NC(=O)Nc2cccc(OCc3cc(=O)n4cc(C)ccc4n3)c2)c1 | 2.9% | -3% | -8% | . | . | . | . | 10%[46.1 µM] |
| COc1ccc2c(c1)c1c(c(=O)n(Cc3ccccc3)c(=O)n1CC(=O)NCc1ccccc1)n2C | 1.2% | -8% | 2% | . | . | . | . | 24%[46.1 µM] |
| Cc1ccc2nc(COc3ccccc3NC(=O)COc3ccc(F)cc3)cc(=O)n2c1 | -0.3% | -13% | 8% | . | . | . | . | 23%[46.1 µM] |
| CC(C)(C)n1nnnc1C(c1ccccc1F)N(Cc1ccco1)CC1CCCO1 (stereo not drawn) | -0.2% | . | 9% | -6% | 12% | ? | -30% | ? |
| Cc1cccc(NC(=O)Cn2c(=O)n(CCCS(=O)(=O)C3CCCCC3)c(=O)c3ccccc32)c1 | -1.3% | -7% | -4% | . | . | 1%[46.1 µM] | . | -6%[46.1 µM] |
| O=C(c1ccc2c(=O)n(CCc3ccccc3)c(=O)[nH]c2c1)N1CCN(c2ccc(F)cc2)CC1 | -2.0% | 11µM* | 7% | -1% | -12% | ? | -1% | ? |
| CCC(=O)N1CCc2cc(Br)cc(S(=O)(=O)CCC(=O)NCCc3ccc(Cl)cc3)c21 | 1.6% | -6% | -7% | . | . | 27%[46.1 µM] | . | ? |
| CCOc1cccc(OCCn2cnc3ccccc3c2=O)c1 | 0.5% | 62%[activator] | 10% | -6% | 5% | -1% | -1% | 18% |
| CC1=C(c2ccc(C)c(C)c2)S(=O)(=O)N(Cc2ccc(C(=O)NCc3ccccc3F)cc2)C1=O | -3.1% | -7% | 25µM* | . | . | 8%[46.1 µM] | . | . |
| Brc1ccccc1OCCCn1cnc2ccccc21 | -5.0% | 51%[activator] | 6% | 0% | ? | ? | -57% | ? |
| O=C1NCCNC(=O)c2ccccc2OCCOc2ccccc21 | -1.5% | -16% | -3% | -1% | 11% | 10% | 3% | 14% |
| O=C(c1ccccc1)c1coc2ccc(O)c(Cl)c12 | -6.8% | 0% | 4% | -9% | -18% | -7% | -148% | -10%[14.3 µM] |
| COc1cc(OC)c(N(C)C(=O)c2cc3c(s2)-c2ccccc2OC3)cc1Cl | -4.0% | -22% | -1% | . | . | -3%[46.1 µM] | . | . |
| C[C@H](NC(=O)C1(c2ccccc2)CCN(C(=O)[C@H]2CSCN2C(=O)OC(C)(C)C)CC1)C(=O)O | -2.3% | -4% | ? | 4%&5% | 1% | ? | 11% | ? |
| O=C(NC(=O)c1ccncc1)NC(c1ccccc1)c1ccccc1 | -2.8% | . | 0% | 4% | 6% | -8% | 10% | -13% |
| Nc1ccc(N(c2ccccc2)c2ccc(N)cc2)cc1 | -0.8% | ? | 32µM* | 3% | -2% | ? | 18% | -17% |
| CC(=O)c1ccc(NC(=O)CSc2nc(C)cc(C)c2C(N)=O)cc1 | . | -17% | . | -1% | -1% | -23%[46.1 µM] | 3% | -6%[46.1 µM] |
| CCN(CC)c1ccc(S(=O)(=O)N2CCOCC2)cc1NC(=O)CSc1nncs1 | . | 8% | . | 8% | 6% | 2% | . | -5%[46.1 µM] |
| COc1cc(Br)cc(CN2CCN(C)CC2)c1O | -5.2% | 0% | 7% | 5% | 21% | -11% | -4% | 3% |
| COc1ccc(-c2cc(C(=O)Nc3ccc(Br)cc3)no2)cc1 | . | 9% | . | 0% | -2% | 3% | 1% | 5% |
| O=C(CCc1ccccc1)Nc1ccc(S(=O)(=O)N2CCCC2)cc1 | . | 2% | . | 1% | 3% | . | 1% | . |
| CC(C)Oc1cccc(C(=O)N/N=C/c2ccoc2)c1 | . | 25% | . | 14% | -10% | 0%[46.1 µM] | 4% | ? |
| O=S(=O)(CC(CN1CCCC1)N1CCCC1)c1ccc2ccccc2c1 (stereo not drawn) | 1.4% | 0% | -2% | 3% | -10% | 18µM* | 1% | 10µM* |
| CCOC(=O)c1c(NC(C)=O)sc2c1CCCNC2=O | 4.6% | 0% | -7% | 8% | 4% | ? | -4% | -4% |
| Cc1ccc(-n2c(C)cc(C(=O)Cn3nc(C(=O)O)c4ccccc4c3=O)c2C)cc1 | -6.4% | 5% | ? | -13% | 22% | ? | 9% | ? |
| COc1ccc(S(=O)(=O)N(C)CC(=O)N2CCN(c3ccccc3)CC2)cc1 | . | -20% | . | 5% | -3% | ? | -6% | . |
| CCC1(C)CC(C(N)=S)CCO1 (stereo not drawn) | . | -22% | . | 0% | 0% | 5% | 2% | ? |
| COc1ccc(-c2ccccc2NC(=O)C2CCCN(Cc3ccc(C)o3)C2)cc1 (stereo not drawn) | . | -20% | . | 2% | -8% | ? | 12% | 7% |
| COCC1COS(=O)(=O)NC1(C)C (stereo not drawn) | . | -12% | . | 3% | 14% | . | -7% | . |

Screening results as filed in PubChem BioAssay.
